Assay outcomes as filed in PubChem BioAssay.
D2 PAM = Beta-Arrestin HTS for Positive Allosteric Modulators of the Human D2 Dopamine Receptor: Potentiators. D(2) dopamine receptor (Homo sapiens), P14416. DiscoveRx D2 beta-arrestin cells, luminescence, 90 min; 100% = 57 uM dopamine signal. potentiation, % (concentration not given with the values). 360,000 compounds, 0.23% hits. AID 624464, 2012; active = potentiation of 50% or more; inconclusive = 30% to 50%; inactive = 30% or less;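 also: tested on top of an EC20 dose of dopamine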
Target sequence (P14416 whole entry, looked up): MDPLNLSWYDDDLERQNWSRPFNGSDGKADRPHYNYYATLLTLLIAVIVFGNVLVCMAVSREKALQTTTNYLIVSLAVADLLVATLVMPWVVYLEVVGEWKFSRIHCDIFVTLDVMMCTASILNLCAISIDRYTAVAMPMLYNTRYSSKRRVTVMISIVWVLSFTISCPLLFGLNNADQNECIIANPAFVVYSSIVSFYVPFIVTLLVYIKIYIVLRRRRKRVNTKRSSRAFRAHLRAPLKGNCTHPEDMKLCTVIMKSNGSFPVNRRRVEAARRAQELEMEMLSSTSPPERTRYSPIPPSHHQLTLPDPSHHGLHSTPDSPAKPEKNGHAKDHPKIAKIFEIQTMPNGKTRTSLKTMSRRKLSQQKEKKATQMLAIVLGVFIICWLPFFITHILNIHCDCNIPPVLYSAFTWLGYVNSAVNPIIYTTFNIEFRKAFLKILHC
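D2 cells co-treated with compound plus 50 nM dopamine (EC20) for 90 min at 37 deg C to detect potentiation. Beta-arrestin recruitment was read as enzyme-fragment luminescence after 1 h at ambient temperature. Full response was set by 57 uM dopamine.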
PINK1 modulator = A Quantitative High throughput Screen to Identify Chemical Modulators of PINK1 Expression. 410,000 compounds, 0.2% hits. Potency, µM (highest dose often 76.6 µM), for inactives: at the top dose activation (PINK1 increase), hits mostly activators. PINK1 immunofluorescence, high-content cytometry, 24 h. AID 624263, 2012; active = well fitted activation curve with a large enough effect; inconclusive = small, poorly fitted or top-dose-only effect; inactive = flat fitted curve, though single readings scatter; cell line not stated here;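 also: potency is read from the fitted curve at half-maximal effect; % of control where 0% means no effect; nearly all actives have a fitted effect of over 65% in size; a mitochondrial uncoupler was the plate control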
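Stable cell line, 250 cells/well, 12 h attachment; compounds pinned at 5 concentrations, 24 h; CCCP control. Fixed with nuclear dye, primary antibodies 12 h at 10 degrees C, secondary plus cell stain; laser-scanning cytometer read.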
D2 agonist = Beta-Arrestin HTS for Positive Allosteric Modulators of the Human D2 Dopamine Receptor: Agonists; DiscoveRx PathHunter D2 beta-arrestin, luminescence, 90 min; 100% = 57 uM dopamine signal; activation, % (no concentration beside the values); 360,000 compounds, 0.084% hits; AID 624465, 2012; in the data active = activation above about 40%; inconclusive = about 15% to 40%; inactive = below about 15%; also: compound concentration not given in the record; the text of the record calls up to 30% inactive
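Agonist mode: compounds alone added to overnight-plated D2 PathHunter cells for 90 min at 37 C, with 57 uM final dopamine (EC100) defining full response. Beta-arrestin recruitment detected by chemiluminescent reagent, read after 1 h at ambient temperature.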
CtBP-E1A inh = qHTS Assay for Inhibitors of the CtBP/E1A Interaction. activity change, % (test concentration not listed). 340,000 compounds, 0.49% hits. CtBP / adenovirus E1A interaction (AlphaScreen). AlphaScreen GST-E1A/His-CtBP binding, 1536-well; stronger effect = lower value; control for the full effect not named in the record. AID 651724, 2012; in the data active means activity change below about -65%; inconclusive means about -30% to -65%; inactive means above about -30%; also: % is scaled to controls: 0 for no effect and ±100 for the full control effect
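Steps: dispense buffer (Tris pH 8.0, NaCl 300 mM, TCEP 1 mM, BSA, Tween 20); add 5X protein mix (GST-E1A, His-CtBP, 125 nM each); pin 23 nL compound; 2 h at 37 °C, dark; add 5X beads (50 ug/mL); 1 h; read.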
TRPML1 ag = qHTS for Agonists of the Human Mucolipin Transient Receptor Potential 1 (TRPML1). 410,000 compounds, 0.12% hits. AID 624414, 2012. activation, % (concentration not given with the values). Mucolipin-1 (Homo sapiens), Q9GZU1. TRPML1-expressing cells, Ca2+ dye fluorescence, FDSS; host cell line not named in the record; reference of the full effect not given here; in the data active = activation above about 50%; inconclusive = about 30% to 50%; inactive = below about 30%; also: 0% is about no effect; the text of the record puts the active cut at 80%
Target sequence (Q9GZU1 whole entry, looked up): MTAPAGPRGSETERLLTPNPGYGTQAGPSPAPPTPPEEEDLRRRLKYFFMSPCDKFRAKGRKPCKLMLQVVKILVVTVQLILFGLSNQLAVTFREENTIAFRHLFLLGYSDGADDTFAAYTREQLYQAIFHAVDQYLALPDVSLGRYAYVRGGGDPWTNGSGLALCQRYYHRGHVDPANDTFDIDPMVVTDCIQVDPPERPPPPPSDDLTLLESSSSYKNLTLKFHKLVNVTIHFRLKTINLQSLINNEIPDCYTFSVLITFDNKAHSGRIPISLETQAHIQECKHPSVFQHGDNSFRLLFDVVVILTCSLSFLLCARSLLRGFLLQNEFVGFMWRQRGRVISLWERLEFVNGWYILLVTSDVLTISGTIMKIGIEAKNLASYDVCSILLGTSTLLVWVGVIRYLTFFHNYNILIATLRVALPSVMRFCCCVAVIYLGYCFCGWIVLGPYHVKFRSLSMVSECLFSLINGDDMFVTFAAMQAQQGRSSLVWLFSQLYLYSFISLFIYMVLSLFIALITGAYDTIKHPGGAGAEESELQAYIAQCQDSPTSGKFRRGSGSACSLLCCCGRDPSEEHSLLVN
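TRPML1-DL cells, Tet-induced overnight (~16 h, 37 degrees C), loaded 45-90 min at room temperature with Ca8 no-wash calcium dye plus quencher. FDSS fluorescence: 10 s baseline, compound pin-transfer, 110 s agonist read, then EC80 54-4 (4uM final) and 110 s antagonist read.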
Six1-Eya2 blk = qHTS Assay for Inhibitors of the Six1/Eya2 Interaction | activity change, % (concentration not given with the values) | 360,000 compounds, 0.56% hits | AlphaScreen GST-Six1/His-Eya2 binding, biochemical; stronger effect = lower value; control for the full effect not named in the record | AID 651725, 2012; in the data active = activity change below about -65%; inconclusive = about -30% to -65%; inactive = above about -30%; also: % is scaled to controls: 0 for no effect and ±100 for the full control effect
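Six1/Eya2 binding was read as AlphaScreen signal after compounds were pinned into GST-Six1 plus His-tagged Eya2 (5X stock 250/500 nM) in pH 8.0 Tris/NaCl/TCEP buffer, beads added, then incubated 1 h, 37 C, dark.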
Numbers without * were called inactive; ? = inconclusive; / = no result given; [ ] = another dose, or the depositor's remark.

SMILES | D2 PAM | PINK1 modulator | D2 agonist | CtBP-E1A inh | TRPML1 ag | Six1-Eya2 blk
COc1ccccc1CNC(=O)c1cc(C2CC2)nc2c1cnn2C(C)C | -26.1 | ? | 1.2 | -4.1 | 4.9 | 3.2
NS(=O)(=O)c1cccc(NC(=O)COC(=O)C2CCN(S(=O)(=O)c3cccs3)CC2)c1 | 3.1 | 1.9% | -1.5 | 0.4 | 0.3 | -3.2
O=C(c1cccc(Cl)c1)N1CCn2c1nc1ccccc12 | -6.0 | 0.3% | -2.3 | 5.0 | 0.3 | 9.2
CN(CC(=O)Nc1ccc(F)cc1)C(=O)CN1C(=O)NC2(CCCC2)C1=O | -11.9 | 0.4% | 0.4 | -15.4 | 0.4 | 12.4
COc1cccc(/C=N/NC(=O)CC2C(=O)NN=C2C)c1O (stereo not drawn) | 6.5 | 0.6% | 0.8 | ? | -0.5 | ?
COC(=O)c1cc(NC(=O)CSc2ncn[nH]2)ccc1Cl | 0.1 | -1.2% | 2.6 | -7.3 | 0.5 | -8.8
Cc1nc(N2CCOCC2)nc(OC(C)C)c1[N+](=O)[O-] | 1.4 | -1.4% | -2.4 | -7.0 | 4.6 | 23.1
Cc1nn(-c2ccccc2)c(N2CCCC2)c1/C=C1\N=C(c2ccc(F)cc2)OC1=O | -2.1 | -1.2% | -3.1 | / | -0.4 | 3.0
O=C(Cc1cccc(NC(=O)C2CCN(C(=O)C3CCCCC3)CC2)c1)Nc1cccc(C(=O)N2CCCC2)c1 | 3.6 | 0.7% | 0.9 | -0.1 | 1.0 | 1.0
Nc1ncnc2c1ncn2[C@@H]1O[C@H](CNC(=O)[C@@H]2CCCN2S(=O)(=O)c2ccc(F)cc2)[C@@H](O)[C@H]1O | 3.0 | -1.1% | -0.1 | -0.9 | -0.6 | 2.9
O=c1c2ccccc2nc(-c2ccc(Cl)c(Cl)c2)n1O | -16.7 | 4.7% | -3.0 | -0.1 | 13.8 | 2.4
Cc1ccc(Cl)cc1NC(=O)c1ccc(NC(=O)CCC(=O)O)cc1 | -4.8 | -2.0% | -0.7 | 6.2 | -0.5 | 1.0
O=C(CCN1C(=O)C2C3C=CC(C4CC34)C2C1=O)Oc1ccc(Br)cc1 (stereo not drawn) | 1.3 | 1.2% | 7.9 | -3.1 | -0.3 | -2.2
CC(C)NC(=O)NC(=O)CSc1nncn1C | 1.5 | -0.6%[38.3 µM] | -2.0 | 46.2 | -0.5 | 0.0
C=C(C)C(O)Cc1c(OC)ccc(C(=O)/C=C/c2ccc(O)cc2)c1O (stereo not drawn) | -21.2 | 0.2% | -4.6 | 1.5 | / | 3.8
COc1ccc(/C=C(\C#N)C(=O)C(C)(C)n2cncn2)cc1 | -2.1 | -0.5% | -3.6 | -4.0 | 2.9 | 3.9
CCCCCCSc1nsc(NC(=O)CC(C)C)n1 | -2.4 | 12.0% | 6.4 | 21.4 | 0.2 | 12.8
COc1ccc(-c2cc(C(F)(F)F)nc(SCC(=O)N3CC(C)OC(C)C3)n2)cc1OC (stereo not drawn) | -6.4 | 19.2% | -3.5 | -13.0 | 1.2 | 4.1
CCOC(=O)C1C(c2ccc(O)c(OC)c2)NC(=O)NC1(O)C(F)(F)F (stereo not drawn) | -0.5 | 1.7% | -3.8 | 1.2 | -0.4 | 6.3
CC(=O)C1=C(C)NC(C)=C(C(C)=O)C1c1cn(-c2ccccc2)nc1-c1cccs1 | 4.1 | 3.2% | -1.9 | 0.2 | -0.5 | -4.4
COCCNc1nc(NCCNC(C)=O)c2sc(-c3ccccc3)cc2n1 | -19.3 | 0.5% | -5.0 | -14.9 | -0.8 | -7.5
Cn1c(=O)c2cc3c(nc2n(C)c1=O)CC(c1ccccc1)CC3=O (stereo not drawn) | -16.8 | 0.0% | -5.1 | / | -1.2 | -3.0
CSCCC(NS(=O)(=O)/C=C/c1ccccc1)C(=O)N1CCC(C)CC1 (stereo not drawn) | -3.4 | -2.1% | -7.2 | 7.4 | -1.0 | 3.5
C[C@H](CO)N1C[C@H](C)[C@@H](CN(C)Cc2ccc(Cl)c(Cl)c2)Oc2c(NS(=O)(=O)c3cn(C)cn3)cccc2C1=O | / | 2.2% | 0.8 | 6.8 | -0.1 | 4.7
O=C(NCc1ccco1)C(=O)c1c[nH]c2ccccc12 | 1.4 | 0.2% | 0.5 | 10.0 | 2.1 | -3.0
CC(C)n1nnnc1SCC(=O)N1N=C(c2cccs2)CC1c1cccs1 (stereo not drawn) | 24.6 | -0.6% | 2.7 | -1.3 | 0.5 | -7.4
CCN(CCO)C(=S)Nc1cc(S(=O)(=O)N(C)C)ccc1C | -11.4 | 2.4% | -2.7 | -10.0 | -0.7 | -1.9
Cc1ccc(NC(=S)N(C)N)cc1Cl | -2.1 | -0.7% | 11.8 | 2.4 | -0.4 | -0.5
COC(=O)CC/C(O)=C1/C(=N)CC(C)(C)CC1=O | 0.0 | 1.0% | -2.3 | -0.8 | 0.3 | 2.8
CCOc1ccc(OCCNC(=O)c2ccc3c(c2)nnn3CC)cc1 | -7.1 | 1.6% | 3.2 | -4.5 | 2.2 | 3.6
CC(C)C(NC(=O)COc1ccccc1)C(=O)O (stereo not drawn) | -3.6 | 1.2%[38.3 µM] | 0.5 | 10.7 | -0.8 | 7.8
COc1cccc(C2C(=O)N(C3CCCCC3)CC(=O)N2Cc2ccc(F)cc2)c1 (stereo not drawn) | -8.2 | 3.4%[38.3 µM] | -1.3 | 3.9 | 0.2 | 2.3
CCn1c(=O)cc(SCC(=O)NCC2CCCO2)c2ccccc21 (stereo not drawn) | 4.3 | -0.7%[38.3 µM] | 0.2 | -2.3 | -0.8 | -1.5
Cc1cccc(C)c1NC(=O)CSCC(=O)c1ccc(O)c(O)c1 | 0.6 | -1.8% | -1.0 | 0.4 | -1.0 | -1.8
COc1ccc(S(=O)(=O)NCC(=O)NCc2cc(=O)n(C)c(=O)n2C)cc1F | -15.6 | 0.4% | -2.8 | -3.2 | 0.4 | -0.2
Cn1cnc([N+](=O)[O-])c1S(=O)(=O)Oc1cccc2ccccc12 | -28.6 | 0.1% | -7.2 | -9.9 | 1.2 | -8.8

As entered above.
`Cc1ccc(NC(=S)N(C)N)cc1Cl` – PINK1 modulator = -0.7%
`CCOc1ccc(OCCNC(=O)c2ccc3c(c2)nnn3CC)cc1` – Six1-Eya2 blk = 3.6
`CC(C)n1nnnc1SCC(=O)N1N=C(c2cccs2)CC1c1cccs1` (stereo not drawn) – D2 agonist = 2.7

Next section.
SMILES | D2 PAM | PINK1 modulator | D2 agonist | CtBP-E1A inh | TRPML1 ag | Six1-Eya2 blk
COC(=O)c1c(C)oc2ccc(N(C(=O)c3ccncc3)S(=O)(=O)c3ccc(C)cc3C)cc12 | -9.5 | 12.7% | -5.4 | 2.6 | 0.0 | 4.0
O=C(CCN1C(=O)/C(=C\C=C\c2ccccc2)SC1=S)Nc1ccccc1C(=O)O | -8.3 | -0.2% | -2.0 | -1.5 | 1.0 | -4.8
Cc1ccc(CCC(=O)Nc2nccs2)o1 | -7.8 | / | -0.2 | 4.2 | -0.3 | -3.8
COc1ccc(Cn2nnnc2C(c2ccc(N(C)C)cc2)N2CCC(C(N)=O)CC2)cc1 (stereo not drawn) | -0.9 | -1.0% | -1.7 | -3.9 | 0.7 | -17.2
Cc1ccccc1N1C(=O)C(Cc2ccc(F)cc2)S/C1=C(\C#N)C(N)=O (stereo not drawn) | 2.2 | ? | -0.8 | -1.1 | 8.5 | 3.0
Cc1cc(NC(=O)C2(C)CCN2C(C)C)c2ccccc2n1 (stereo not drawn) | -12.8 | 1.3% | -0.9 | 0.7 | -0.4 | -1.6
O=C(NCC1CCCO1)c1cc([N+](=O)[O-])ccc1N1CCC(Cc2ccccc2)CC1 (stereo not drawn) | 0.2 | 0.6% | -0.5 | -27.7 | 1.8 | -13.2
COC(=O)c1cccn(CC(=O)c2ccc(Cl)cc2Cl)c1=O | 0.9 | 0.5% | -1.2 | -0.4 | -1.0 | 0.6
COCCn1c(-c2ccc(Cl)cc2Cl)nc2c(c(=O)c3ccccc3n2C)c1=O | 10.3 | 1.1% | -2.4 | 1.2 | 1.4 | -0.9
C[C@H](NC(=O)c1nc[nH]c1C(=O)N[C@@H](C)C(=O)OCc1ccccc1)C(=O)OCc1ccccc1 | 1.0 | 2.5% | 0.3 | 1.5 | 2.9 | -6.8
COc1ccc(C2=NN(C(=O)c3ccc(Cl)c([N+](=O)[O-])c3)C(c3ccccc3)C2)cc1 (stereo not drawn) | -5.5 | -2.2% | -2.3 | -18.6 | 1.9 | -18.2
COc1ccc(NC(=O)CN(C)C(=O)c2c(C)nn(Cc3ccccc3)c2C)cc1 | -21.3 | -0.4% | -3.7 | 9.3 | -0.1 | 1.1
CC(C)c1ccc(OCC(=O)Nc2ccc3oc(=O)ccc3c2)cc1 | -7.8 | 1.2% | -3.0 | 9.3 | 1.0 | 7.5
c1ccc(COc2cncc(-c3cccnc3)c2)cc1 | -10.8 | -0.9% | -1.5 | -21.2 | 1.2 | 11.6
CC(C)C(NS(=O)(=O)c1c(Cl)cccc1Cl)C(=O)OCC(=O)c1c[nH]c2ccccc12 (stereo not drawn) | 1.1 | 22.5% | 1.1 | 2.8 | 2.5 | 1.8
CCOc1ccc(S(=O)(=O)NC(C)C(=O)NCc2ccccn2)cc1 (stereo not drawn) | -7.7 | 0.2% | -2.6 | 0.0 | 0.6 | 0.8
Cc1sc2ncnc(NCC(C)(C)N3CCOCC3)c2c1C | -6.4 | -1.5% | 3.5 | 8.3 | 0.0 | 3.5
O=C(Cc1cccs1)Nc1nnc(CCc2ccccc2)s1 | -2.5 | 4.5% | 2.2 | -2.0 | -0.1 | -4.1
N#CCC1c2ccccc2CCN1C(=O)Nc1ccc(Cl)cc1 (stereo not drawn) | -21.3 | 2.1%[38.3 µM] | -1.7 | 6.4 | -0.1 | 4.9
CC(C(=O)NC1CCCCC1)N1C(=O)c2cccc3cccc1c23 (stereo not drawn) | 6.3 | -0.6% | -0.5 | 23.2 | -0.7 | 12.2

Part of the list above, with two lines to a compound.
Values run as follows: D2 PAM | PINK1 modulator | D2 agonist | CtBP-E1A inh | TRPML1 ag | Six1-Eya2 blk
c1ccc(COc2cncc(-c3cccnc3)c2)cc1
  -10.8 | -0.9% | -1.5 | -21.2 | 1.2 | 11.6
CC(C)c1ccc(OCC(=O)Nc2ccc3oc(=O)ccc3c2)cc1
  -7.8 | 1.2% | -3.0 | 9.3 | 1.0 | 7.5
Cc1sc2ncnc(NCC(C)(C)N3CCOCC3)c2c1C
  -6.4 | -1.5% | 3.5 | 8.3 | 0.0 | 3.5
